Rango release inh: prevents RanGTP from dissociating the Rango-importin beta complex; AID 540253; Potency, µM (titrated, usually from 46.1 µM), inactives show at the highest dose activity change, negative = inhibition; 340,000 tested, 0.071% active; Biochemical FRET Rango-importin beta, RanGTP-induced dissociation; active means falling FRET ratio curve, often poorly fitted, with flat reads before Ran was added; inconclusive means other falling curves, or compound fluorescence or quenching; inactive means flat or rising ratio curve;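 further: potency means the concentration at half of the fitted maximal effect; % of control where 0% means no effect; nearly all actives have a fitted effect of over 45% in size; -100% = wells without RanGTP and RCC1; the record marks most hits as doubtful in a second field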
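Quantitative HTS using a FRET biosensor: 0.1 uM Rango, 0.25 uM importin beta, 0.6 uM Ran, 2 mM GTP, 0.2 uM RCC1 final, PBS with DTT, Tween-20 and BSA. Post-read taken 45 min after Ran addition.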
GLA inh pH 4.5: alpha-galactosidase A (human) inhibition, pH 4.5 | P06280 | purified enzyme, 4-MU-alpha-Gal fluorescence, pH 4.5 | activity change, negative = inhibition, % at 105 µM | 230,000 tested, under 10 active | AID 1467; inconclusive = small, poorly fitted or top-dose-only inhibition, or a rising curve; inactive = flat fitted curve, though single readings scatter; no compound was filed as active;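 further: 0% = full activity with enzyme and -100% = basal without enzyme; dose as in the result columns while the protocol names 77 µM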
Target sequence (P06280 whole entry, looked up): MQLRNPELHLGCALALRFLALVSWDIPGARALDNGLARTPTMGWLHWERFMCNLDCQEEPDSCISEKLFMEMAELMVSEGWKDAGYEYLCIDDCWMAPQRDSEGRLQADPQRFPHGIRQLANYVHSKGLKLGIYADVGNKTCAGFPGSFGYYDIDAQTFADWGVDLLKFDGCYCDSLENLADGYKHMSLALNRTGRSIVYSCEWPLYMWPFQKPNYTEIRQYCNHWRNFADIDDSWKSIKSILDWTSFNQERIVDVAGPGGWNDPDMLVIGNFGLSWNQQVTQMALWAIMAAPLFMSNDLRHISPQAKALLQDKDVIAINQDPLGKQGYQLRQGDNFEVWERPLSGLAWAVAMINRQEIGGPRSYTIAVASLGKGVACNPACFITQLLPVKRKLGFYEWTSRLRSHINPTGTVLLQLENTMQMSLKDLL
miR-21 FLuc: raises the signal of a miR-21 reporter | Potency, µM (top dose mostly 38.3 µM), without a hit: at the highest dose reporter change, positive = more light | AID 2288 | HeLa miR-21 FLuc reporter, luciferase, 48 h | 340,000 tested, under 10 active; active = well fitted rising curve with a large enough effect; inconclusive = small, poorly fitted or top-dose-only effect; inactive = no such curve, though single readings can be large or run the other way;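 further: % of control where 0% means no effect; miR-21 action dims this reporter so a rising signal means less miR-21 action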
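Using DMEM plus 10% FBS, HeLa miR-21-FLuc cells are incubated with test compounds (final up to about 40uM) for 48 hours; firefly luciferase signal is then imaged following reagent-mediated lysis.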
Rango-impB inh: inhibitors of Rango-importin beta complex formation; Q14974; AID 540263; Rango CFP/YFP FRET sensor + importin beta, 45 min; Potency, µM (doses to about 92.2 µM), inactives show at the top dose inhibition of complex formation; 340,000 tested, 0.031% active; active = rising FRET ratio curve, often small or poorly fitted; inconclusive = mostly compound fluorescence or quenching in the first reads; inactive = flat curves in all reads;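 further: potency means the concentration at half of the fitted maximal effect; 0% = DMSO wells and 100% = buffer wells lacking importin beta; nearly all actives have a fitted effect of over 15% in size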
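FRET biosensor Rango (snurportin 1 IBB between N-terminal EYFP and C-terminal Cerulean), 50 nM in PBS/1 mM DTT/0.02% Tween-20/0.1% BSA, preincubated 5 min RT with compound; 0.125 microM importin beta added, 45 min RT, CFP/YFP FRET ratio read.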
Starred values were filed as active, the others as inactive; ? = inconclusive; . = not tested or not shown; & = joins results of further samples. A portion of the library; count on the stated rates, not on these rows.

SMILES | Rango release inh | GLA inh pH 4.5 | miR-21 FLuc | Rango-impB inh
CC(CC(=O)C1C(C)C=CCC1(C)C)NNC(N)=O (stereo unspecified) | 0% | 8 | -2% | 0.5%
COc1ccccc1N1C(=O)CC(Sc2ncccc2C(=O)O)C1=O (stereo unspecified) | 3% | 3 | -5% | -3.5%
CS(=O)(=O)N1CCCC(C(=O)Nc2ccccc2)C1 (stereo unspecified) | 0% | . | 1% | -2.7%
CC(C)OC(=O)CSc1nc(N)c(C#N)c(-c2cccs2)c1C#N | 7% | 9 | -6% | -3.0%
CC1=C(c2ccccc2)C(=S)NC(C)(C)C1 | -10% | -7 | 1% | 2.1%
CCc1nc2ccccc2c(C(=O)OC2CCCCC2=O)c1C (stereo unspecified) | 10% | 4 | -5% | 1.2%
NNC(=O)c1cc(NS(=O)(=O)c2cccs2)cc(NS(=O)(=O)c2cccs2)c1 | -17% | . | . | -3.0%
CC1CCC2(CC1)NC(=O)N(CC(=O)Nc1ccc(C(N)=O)cc1)C2=O (stereo unspecified) | 4% | . | . | 0.4%
CCCC(=O)Nc1nc(-c2ccc3c(c2)OCCO3)cs1 | -8% | 2 | -30% | -1.8%
CCOc1ccc(CCNC(=O)c2nnn(CC(=O)Nc3ccc(OC)c(OC)c3)c2N)cc1OCC | 17% | . | 7% | -0.3%
CCn1ncc(C2=NOC(C(=O)Nc3c(C)n(C)n(-c4ccccc4)c3=O)C2)c1C (stereo unspecified) | 29% | -2 | -2% | 3.4%
COc1cnc(-c2ccccn2)nc1Oc1ccc(F)cc1F | -9% | 1 | -32% | -2.0%
CC(C)(C)N=C1NC(=NC(C)(C)C)c2ccccc21 | -8% | 1 | 7% | -2.1%
O=[N+]([O-])c1cc2oc3c(c2c(C=NCc2ccccc2)c1O)CCCC3 | -8% | -1 | -2% | 9.5%
CC1CCN(C(=O)CSc2nc(N)c(NC(=O)c3ccccc3)c(=O)[nH]2)CC1 | -20% | . | -2% | 0.8%
COc1ccc2cc(OCC(=O)NNC(=O)Nc3ccc(C(C)=O)cc3)ccc2c1 | -18% | . | -51% | -0.3%
CCOC(=O)N1CCN(C(=O)C2CCN(C(=O)c3cc4sccc4n3CC)CC2)CC1 | -1% | 2 | -4% | -2.5%
CCOc1cccc(/C=C/c2ccc3cccc(O)c3n2)c1OC | 8% | . | -24% | 2.7%
Cc1ccc(-c2nnn(CC(=O)N(CC3CCCO3)C(C(=O)NCC3CCCO3)c3ccc(F)cc3)n2)o1 (stereo unspecified) | -11% | 5 | -10% | -2.9%
Cc1ccc2c(CSc3nnc(N)s3)cc(=O)oc2c1 | -7% | 0 | -30% | -1.4%
CC1(C)C(=O)Nc2ccccc2N1C(=O)COC(=O)c1cc([N+](=O)[O-])ccc1N | 1% | 3 | 1% | ?
CCCCNc1c(-c2cccc(Sc3ccc(OC)cc3)c2)nc2ccccn12 | ? | . | . | ?
CCCc1ccc(C(C)NC(=S)NC2CCCCC2)cc1 (stereo unspecified) | 25% | . | 25% | -0.3%
CCN(CC)CCn1c2c(c(SCC(=O)Nc3nccs3)nc1=O)CCCC2 | -8% | . | . | -0.1%
CC(=O)Nc1ccc(C(F)(F)F)cc1Cl | 5% | -2 | 1% | -0.6%
Cc1cc(C)c(C(=O)OCC(=O)NCc2cccs2)c(C)c1 | 8% | -1 | -33% | 1.7%
Cc1cc[n+](CC[n+]2ccc(C)cc2)cc1 | 3% | . | . | -4.5%
COC(=O)C1CC(c2c(OC)cc(OC)cc2OC)=NO1 (stereo unspecified) | 1% | 2 | -6% | -0.1%
CC1CCC(C(C)C)C(OC(=O)Cn2c(-c3ccccc3)[n+](C)c3ccccc32)C1 (stereo unspecified) | 18%&0% | -3&4 | ? | 2.3%&-0.3%
Cn1c(CCNC(=O)c2ccc(Cl)c(Cl)c2)nnc1SCc1ccc(Cl)c(Cl)c1 | 1% | -5 | -5% | -2.1%
N#CCCN(C(=O)COC(=O)CCNS(=O)(=O)c1ccccc1)c1ccccc1 | -2% | . | . | 0.3%
Cc1cccc(OCC(=O)NNS(=O)(=O)c2ccccc2F)c1 | -20% | . | 0% | -2.0%
CCC(=O)N1CCc2cc(S(=O)(=O)NC(C(=O)NCc3ccc(C)cc3)C(C)C)ccc21 (stereo unspecified) | -11% | 1 | -4% | 1.0%
O=c1ccc(S(=O)(=O)N2CCCC2)cn1Cc1nc(-c2ccccc2)no1 | -11% | . | . | -3.4%
O=C(CC1(O)C(=O)Nc2ccccc21)c1ccc2c(c1)OCO2 (stereo unspecified) | -10% | 3 | -1% | ?
CCCc1nc2c(sc3nc4c(cc32)COC(C)(C)C4)c(=O)o1 | -27% | 5 | -5% | -1.1%
O=C(NNC(=O)c1ccccc1O)c1ccc(Cl)c(S(=O)(=O)N2CCc3ccccc32)c1 | 1% | . | . | -0.1%
CCN(c1ccccc1)S(=O)(=O)c1nnc(NC(=O)C(C)C)s1 | 2% | . | 0% | -1.5%
O=C1c2ccccc2C(=O)N1Cc1cc(Cl)c(O)c([N+](=O)[O-])c1 | -6% | . | 2% | 0.6%
Cc1c(C(=O)N2CCCC2)c(S(=O)(=O)NCCc2ccccc2)c(C)n1C | -3% | . | -5% | -2.9%
CC1(c2ccc(Cl)cc2)NC(=O)N(CC(=O)N2CCc3ccccc32)C1=O (stereo unspecified) | 19% | . | . | -3.2%
COc1c(C)cc(Br)cc1C(=O)Nc1ccccc1C | 1% | 6 | -16% | 0.0%
OCC1CCCN(C(=S)NCCc2ccccc2)C1 (stereo unspecified) | 12% | 9 | -47% | -0.3%
CN(C)CCNC(=O)c1ccc(Cl)s1 | -9% | 1 | -9% | -2.0%
COc1ccc(N2Cc3cccc(C(=O)O)c3C2=O)cc1 | -5% | -3 | -17% | -4.2%
Cc1ncoc1C(=O)N1CCc2c([nH]c3ccccc23)C1C(C)(C)C (stereo unspecified) | -2% | -1 | 0% | 1.3%
O=C(OCc1cccc([N+](=O)[O-])c1)c1cnccn1 | 18% | 0 | 1% | -0.5%
O=C(NCc1ccc(Cl)cc1)C1CCCN(S(=O)(=O)c2cnc[nH]2)C1 (stereo unspecified) | -13% | 0 | 0% | 1.6%
C[C@@H]([C@@H](O)c1ccccc1)N(C)C(=O)C(N)Cc1ccccc1 (stereo partly specified) | -6% | . | -3% | -2.9%
CC(=O)N1CCN(Cc2nc3cc(NC(=O)c4ccccc4Cl)ccc3n2C)CC1 | -3% | 9 | 0% | 0.8%
O=C(CCNC(=O)c1ccc([N+](=O)[O-])cc1)Nc1cc(Cl)ccc1N1CCOCC1 | -14% | . | . | 1.1%
Cc1noc(C)c1S(=O)(=O)N(C)C[C@H]1Oc2c(NC(=O)NC(C)C)cccc2C(=O)N([C@H](C)CO)C[C@@H]1C | 0% | . | . | -1.3%
C=CCn1c(CNS(=O)(=O)c2ccc(Cl)cc2)n[nH]c1=S | 27% | . | -4% | 8.7%
CCNC(=S)N1CCN(S(=O)(=O)c2ccc(Cl)s2)CC1 | -6% | . | . | -3.6%
CC(C)(C)OC(=O)C[C@@H]1C/C=C\C[C@@H](CC(=O)N(CCO)Cc2ccccc2)C(=O)NC[C@@H](c2ccccc2)OC1=O | -4% | . | . | 1.3%
CCN(CCO)Cc1csc2ccccc12 | 7% | 13 | -1% | -3.1%
O=C(O)Cc1csc(-c2cccc(Oc3ccccc3)c2)n1 | 3%&24% | -11&-4 | -1%&-2% | -0.2%&0.4%
CCOc1cc(N2CCOCC2)c(OCC)cc1NC(=O)c1nn(CC)c(=O)c2ccccc12 | 19% | . | . | 5.3%
c1ccc(CN2CCN(c3nc(NCc4ccco4)c4ccccc4n3)CC2)cc1 | 7% | 4 | 30% | -2.4%
COc1ccc(NC(=O)NCCCCc2ccccc2)cc1 | -6% | . | -15% | 4.1%

The list continues:
SMILES | Rango release inh | GLA inh pH 4.5 | miR-21 FLuc | Rango-impB inh
O=C(CSc1nc2ccc(NC(=O)c3ccccc3C(=O)O)cc2s1)Nc1c(Cl)cccc1Cl | 1% | . | -15% | 0.2%
Cc1cc(C)c(C#N)c(SCC(=O)c2ccccc2)n1 | ? | 1 | -17% | ?
N#CCSc1nnc(-c2ccccc2O)n1CCc1ccccc1 | 1% | 4 | 0% | -0.9%
COc1ccccc1C(=O)NC(CCSC)C(=O)NNC(=O)c1ccccc1O (stereo unspecified) | 4% | . | . | -0.1%
CN1C(=O)/C(=C/c2ccc(OCc3ccccc3F)cc2)N(C)C1=S | ? | . | -13% | ?
COc1ccc(CN=Nc2cc(C)nc(NS(=O)(=O)c3ccccc3Cl)n2)cc1 | . | 1 | -6% | .
CC1(C)CC(=O)C2=C(C1)OC(c1cccs1)C(C#N)=C2N (stereo unspecified) | 18% | -2 | -7% | 0.9%
O=C(O)C1CC(O)CN1C(=S)Nc1ccccc1 (stereo unspecified) | -11% | 3 | -1% | 0.0%
Cc1ccc2cc(CN(CC3CCCO3)C(=O)NC3CCCCC3)c(=O)[nH]c2c1C (stereo unspecified) | 24% | -1 | -5% | -2.2%
c1ccc2c(c1)C(=NC1CCCCC1)NC2=NC1CCCCC1 | 0% | -10 | -3% | 5.1%
COc1nc(NCCO)nc(Nc2cc(Cl)ccc2OC)n1 | -2% | . | 0% | 1.0%
COc1cccc(N2CCN(C(=O)c3cccnc3)CC2)c1 | -12% | 4 | -7% | -2.1%
Clc1ccc(Cl)c2sc(N3CCCC3)nc12 | -1% | 0 | -33% | -3.7%
CCOC(=O)C1(CCc2ccccc2)CCN(Cc2cnc(N(C)C)s2)CC1 | -28% | -7 | 12% | ?
CCCCOCCCN1CC(=O)N2C(C)c3[nH]c4ccccc4c3C[C@H]2C1=O (stereo partly specified) | -2% | . | 6% | -0.2%
CCCn1c(C)cc(/C=C(\C#N)C(=O)OCC(=O)NC(=O)NCC)c1C | ? | 3 | -21% | ?
CCC(=O)NC(c1cccs1)c1cc([N+](=O)[O-])c2cccnc2c1O (stereo unspecified) | -9% | 0 | 0% | -0.9%
Cc1cccc(C(=O)NCCc2csc(C)n2)c1 | -7% | 0 | -13% | -0.1%
CCOc1ccccc1/C=N/NC(=O)c1cccc(S(=O)(=O)N2CCOCC2)c1 | 9% | 9 | -1% | 5.6%
COC(=O)c1c(C(=O)OC)c(-c2ccc(F)cc2)n2c1CS(=O)C2 (stereo unspecified) | 12% | . | -2% | 1.0%

Ordered by the number under Rango release inh (lowest first): 5 from the list above.
SMILES | Rango release inh | GLA inh pH 4.5 | miR-21 FLuc | Rango-impB inh
CC1CCN(C(=O)CSc2nc(N)c(NC(=O)c3ccccc3)c(=O)[nH]2)CC1 | -20% | . | -2% | 0.8%
O=C(CCNC(=O)c1ccc([N+](=O)[O-])cc1)Nc1cc(Cl)ccc1N1CCOCC1 | -14% | . | . | 1.1%
Cc1cccc(C(=O)NCCc2csc(C)n2)c1 | -7% | 0 | -13% | -0.1%
O=C(CSc1nc2ccc(NC(=O)c3ccccc3C(=O)O)cc2s1)Nc1c(Cl)cccc1Cl | 1% | . | -15% | 0.2%
CCn1ncc(C2=NOC(C(=O)Nc3c(C)n(C)n(-c4ccccc4)c3=O)C2)c1C (stereo unspecified) | 29% | -2 | -2% | 3.4%

More records:
SMILES | Rango release inh | GLA inh pH 4.5 | miR-21 FLuc | Rango-impB inh
CCOC(=O)c1cc(-c2csc(Nc3ccccc3Cl)n2)on1 | 1% | -18 | 2% | 1.2%
COC(=O)c1ccc2c(c1)NC(=O)C(N1CCCCC1)S2 (stereo unspecified) | 3% | 5 | -7% | 0.6%
CCOc1ccc(CN(C)CC(=O)Nc2cccc(S(=O)(=O)N(C)c3ccccc3)c2)cc1 | 7% | -4 | 11% | -0.5%
CC(C)(C)c1cc(CNC2CS(=O)(=O)C[C@@H]2O)cc(C(C)(C)C)c1O (stereo partly specified) | -22% | 0 | 0% | 1.6%
Cc1ccc(OCC(=O)N/N=C\c2c(C)n(C)c3ccccc23)c([N+](=O)[O-])c1 | 4% | -22 | 19% | -2.1%
CC(=O)OC1CCC2C3CCc4cc(O)ccc4C3CCC12C (stereo unspecified) | 2% | -13 | . | 3.7%
